# GLA inh pH 4.5 – inhibitors of human alpha-galactosidase A at pH 4.5. P06280. purified enzyme, 4-MU-alpha-Gal fluorescence, pH 4.5. activity change, negative = inhibition, % at 105 µM. 230,000 tested, under 10 active; inconclusive = small, poorly fitted or top-dose-only inhibition, or a rising curve; inactive = flat fitted curve, though single readings scatter; no compound was filed as active;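 note: 0% = full activity with enzyme and -100% = basal without enzyme; dose as in the result columns while the protocol names 77 µM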
# miR-21 reporter – raises the signal of a miR-21 reporter; HeLa miR-21 FLuc reporter, luciferase, 48 h; Potency, µM (top dose mostly 38.3 µM), inactives show at the top dose reporter change, positive = more light; 340,000 tested, under 10 active; AID 2288; active = well fitted rising curve with a large enough effect; inconclusive = small, poorly fitted or top-dose-only effect; inactive = no such curve, though single readings can be large or run the other way;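 note: % of control where 0% means no effect; miR-21 action dims this reporter so a rising signal means less miR-21 action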
#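 HeLa cells endogenously expressing miR-21, stably carrying CMV-driven firefly luciferase with a downstream miR-21 binding site, 2000 cells/well. Titrations up to approximately 40 uM, 48 hours; luciferase luminescence read.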
# Rango release inh – inhibitors of RanGTP-induced Rango-importin beta complex dissociation; O95149+P62826; Biochemical FRET Rango-importin beta, RanGTP-induced dissociation; Potency, µM (highest dose often 46.1 µM), without a hit: top-dose activity change, negative = inhibition; 340,000 tested, 0.071% active; AID 540253; active means falling FRET ratio curve, often poorly fitted, with flat reads before Ran was added; inconclusive means other falling curves, or compound fluorescence or quenching; inactive means flat or rising ratio curve;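 note: potency is the fitted concentration of half-maximal effect; % of control where 0% means no effect; nearly all actives have a fitted effect of over 45% in size; -100% = wells without RanGTP and RCC1; the record marks most hits as doubtful in a second field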
#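 Compounds sat 5 min at room temperature with 0.1 uM Rango biosensor plus 0.25 uM importin beta, then FRET pre-read. RanGTP-RCC1 (0.6 uM Ran, 2mM GTP, 0.2 uM RCC1) added for 45 min, and the CFP/YFP post-read measured blocked complex dissociation.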
# Rango complex inh – inhibitors of Rango-importin beta complex formation. Q14974. 340,000 tested, 0.031% active. Potency, µM (series often up to 92.2 µM), without a hit: at the highest dose inhibition of complex formation. AID 540263. Rango CFP/YFP FRET sensor + importin beta, 45 min; active = rising FRET ratio curve, often small or poorly fitted; inconclusive = mostly compound fluorescence or quenching in the first reads; inactive = flat curves in all reads;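 note: potency is the fitted concentration of half-maximal effect; 0% = DMSO wells and 100% = buffer wells lacking importin beta; nearly all actives have a fitted effect of over 15% in size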
# Target sequence (Q14974 whole entry, looked up): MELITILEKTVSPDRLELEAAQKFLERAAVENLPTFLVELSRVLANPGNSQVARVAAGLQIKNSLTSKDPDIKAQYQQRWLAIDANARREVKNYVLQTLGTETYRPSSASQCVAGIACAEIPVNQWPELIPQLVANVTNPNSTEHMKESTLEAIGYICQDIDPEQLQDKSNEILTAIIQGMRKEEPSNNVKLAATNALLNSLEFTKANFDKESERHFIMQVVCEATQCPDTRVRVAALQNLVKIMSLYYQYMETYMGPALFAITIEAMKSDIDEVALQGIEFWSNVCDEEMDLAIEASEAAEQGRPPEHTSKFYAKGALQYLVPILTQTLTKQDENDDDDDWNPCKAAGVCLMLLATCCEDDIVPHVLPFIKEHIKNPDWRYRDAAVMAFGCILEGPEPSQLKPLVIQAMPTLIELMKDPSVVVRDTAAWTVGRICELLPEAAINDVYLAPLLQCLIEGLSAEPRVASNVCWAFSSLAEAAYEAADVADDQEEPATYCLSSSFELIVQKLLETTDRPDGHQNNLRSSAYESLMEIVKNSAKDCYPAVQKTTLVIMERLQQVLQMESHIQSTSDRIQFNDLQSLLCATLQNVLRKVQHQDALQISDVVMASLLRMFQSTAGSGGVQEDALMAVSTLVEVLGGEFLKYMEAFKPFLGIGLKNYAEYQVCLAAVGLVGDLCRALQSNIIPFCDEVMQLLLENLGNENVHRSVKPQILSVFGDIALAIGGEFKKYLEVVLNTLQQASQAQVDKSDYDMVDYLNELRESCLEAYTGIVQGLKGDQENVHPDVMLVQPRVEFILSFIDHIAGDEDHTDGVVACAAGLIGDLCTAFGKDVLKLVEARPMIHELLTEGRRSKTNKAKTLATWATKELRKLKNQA
#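 FRET biosensor (snurportin 1 IBB flanked by EYFP and cerulean), 50 nM, with compound 5 min, then 0.125 microM importin beta in PBS, 1 mM DTT, 0.02% Tween-20, 0.1% BSA. CFP/YFP ratio read after 45 min at room temperature; pre-read flags interference.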
# * = called active by the depositor; ? = inconclusive; · = no result given.
Compound | GLA inh pH 4.5 | miR-21 reporter | Rango release inh | Rango complex inh
CC(C)(C)c1ccc(C(=O)N/C(=C\c2cccs2)C(=O)NCc2ccco2)cc1 | -3 | 6% | 13% | -2.0%
CS(=O)(=O)N1CCCC(C(=O)NCc2cccs2)C1 (stereo not given) | -2 | -2% | -1% | -4.5%
C=CCn1cnnc1SCC(=O)NCC1COc2ccccc2O1 (stereo not given) | · | · | 1% | -0.4%
Cc1cc(NS(=O)(=O)c2ccccc2)n(-c2ccccc2)n1 | 4 | 0% | -15% | -0.3%
CCOc1c(OC(C)=O)ccc(/C=C/c2ccc3cccc(OC(C)=O)c3n2)c1[N+](=O)[O-] | -7 | 13% | 13% | -0.1%
COc1ccc(C2=NN(C(=O)CSc3cn(C)c4ccccc34)C(c3ccc(OC)cc3)C2)cc1 (stereo not given) | 3 | 8% | -7% | 0.2%
O=C1CCC(C(=O)N2CCCCO2)CN1Cc1cccc(C(F)(F)F)c1 (stereo not given) | · | -13% | 1% | -0.1%
COc1ccc2oc(C(=O)OCC(=O)Nc3ccccc3OC)c(C)c2c1 | · | · | -7% | -0.8%
CC(C)Oc1ccc(C(CC(=O)O)NC(=O)Cc2ccccc2)cc1 (stereo not given) | · | -3% | 12% | -1.0%
Cn1c(C(=O)N(Cc2ccccc2)Cc2ccccn2)cc2sccc21 | 0 | 6% | -20% | 2.5%
COC(=O)c1c(NC(=O)c2ccco2)sc(C(=O)N(C)C)c1C | -7 | -26% | -15% | -1.9%
Cc1cc(C)c(N(C(=O)c2csnn2)C(C(=O)NC2CCCC2)c2ccncc2)c(C)c1 (stereo not given) | · | -1% | 8% | 2.3%
COc1cccc(CC(=O)N(CCC2=CCCCC2)c2c(N)n(Cc3ccccc3)c(=O)[nH]c2=O)c1 | · | · | -8% | -0.2%
COc1ccc(C(=O)NNC(=S)NC(=O)/C=C/c2cccs2)cc1 | 5 | -45% | -7% | -0.2%
CCCCC(=O)Nc1ccccc1C(C)C | 0 | -2% | · | ·
COc1ccc(-c2[nH]ncc2CN2CCC(OCc3ccccc3)CC2)c(F)c1 | -11 | -2% | 35% | -4.1%
COC(C[C@@H]1O[C@@H]1[C@H](O)COCc1ccccc1)OC | -2 | 1% | 13% | 1.4%
CCN(CC)S(=O)(=O)c1ccc(C(=O)NCC2(N3CCOCC3)CCCCC2)cc1 | · | · | -4% | ?
O=c1nc(N2CCOCC2)nc(N/N=C/c2ccc3c(c2)OCO3)[nH]1 | 4 | 1% | -8% | 1.4%
Nc1c(-c2ccccc2)cnn1-c1ccc(C(=O)O)cc1 | -4 | -42% | -8% | 1.7%
O=S1(=O)CCOC[C@H](CC2CCCCC2)N1Cc1ccccc1F | · | -1% | 10% | -2.0%
O=C1NC2(CCSC2)C(=O)N1CC(=O)N(Cc1ccccc1)C1CCS(=O)(=O)C1 (stereo not given) | -17 | -12% | -5% | 2.6%
COc1ccc(C(C(=O)NCc2ccccc2)N(C(=O)c2snc(C(N)=O)c2N)C2CCCC2)cc1 (stereo not given) | · | -15% | -4% | -0.6%
NS(=O)(=O)c1ccc(CCNS(=O)(=O)Cc2ccc(Cl)cc2)cc1 | · | 10% | 9% | 0.0%
COCCN(C(=O)c1ccccc1Oc1ccccc1)c1c(N)n(CC(C)C)c(=O)[nH]c1=O | · | · | -31% | 0.8%
COc1cccc(/C=N/NC(=O)CCC(=O)Nc2ccc(Br)cc2)c1 | · | -9% | -4% | 0.5%
CN(C)S(=O)(=O)c1ccc(C(=O)Nc2nnc(-c3cccs3)o2)cc1 | 10 | 18% | 8% | 4.7%
O=C(CCN1CCc2ccccc2C(O)(c2ccccc2)C1)c1ccc2c(c1)OCCO2 (stereo not given) | · | · | 17% | 2.9%
CCn1ccnc1CN(C)C(=O)C1CCC(=O)N(Cc2cccc(F)c2)C1 (stereo not given) | · | 1% | 6% | 0.4%
O=C(COC(=O)COc1ccccc1[N+](=O)[O-])Nc1ccccc1Br | 1 | -3% | 21% | 6.2%

# The list goes on:
Compound | GLA inh pH 4.5 | miR-21 reporter | Rango release inh | Rango complex inh
CC(=O)N1CCOc2ccc(S(=O)(=O)N(C)c3ccc(C)cc3)cc21 | · | 3% | -1% | -0.3%
Cc1ccc(C(=O)Nc2ncccc2C)cc1S(=O)(=O)N1CCCCC1 | · | · | -1% | 4.9%
O=C(CCC(=O)N1CCN(c2ccc(O)cc2)CC1)c1cccs1 | 8 | -38% | -7% | -0.5%
COc1ccccc1OCC(=O)Nc1cc(NC(=O)COc2ccccc2OC)cc(C(=O)O)c1 | · | -6% | -16% | -0.4%
COCCNC(=O)c1cn(C)c2ccc(S(=O)(=O)N3CCCCC3)cc2c1=O | · | 8% | 0% | -0.3%
COC(=O)c1ccc(COc2ccccc2OC)o1 | · | -24% | -8% | 0.4%
O=C1c2ccccc2C(Nc2ccc3c(c2)OCCO3)N1c1ccc(Cl)cn1 (stereo not given) | 0 | -48% | 13% | -5.0%
CCCC(=O)C1=C(O)C(C(=O)OC)C(C)(C)CC1=Nc1cccc([N+](=O)[O-])c1 (stereo not given) | · | 0% | 3% | 1.7%
Cc1ccc(-c2cc(=O)[nH][nH]2)c(C)c1 | -6 | 3% | -9% | -1.5%
CC(C)c1ccc(S(=O)(=O)N2CCN(C(=O)Cc3ccsc3)CC2)cc1 | · | · | 0% | -0.8%
CCN(CC(=O)NCc1cccs1)C(=O)c1ccc(S(=O)(=O)Nc2ccccc2F)cc1 | · | · | 21% | 0.0%
Cc1ccc(S(=O)(=O)N2CCC(C(=O)NCc3ccccc3CN3CCCC3)CC2)cc1 | · | · | 13% | -4.3%
Cc1csc(C(C#N)C(=O)c2ccc(S(=O)(=O)N3CCCC3)cc2)n1 (stereo not given) | -3 | -4% | -3% | 0.1%
CCOC(=O)c1c(NC(=O)COC(=O)c2cnccn2)sc(C(=O)NC)c1C | · | · | -10% | -2.2%
COc1cc(CN2CCCC(N3CCN(c4ccccc4C)CC3)C2)ccc1O (stereo not given) | · | 10% | -10% | -0.4%
CCN(C(=O)c1ccncc1)c1c(N)n(Cc2ccccc2)c(=O)[nH]c1=O | · | · | -5% | 0.2%
COc1ccc(C(=O)Nc2cccc(C(=O)NCc3ccco3)c2)cc1 | 1 | -6% | 1% | 5.7%
COc1ccc(S(=O)(=O)Nc2nc3c(s2)C(=O)CC(C)(C)C3)cc1 | · | 1% | 1% | 0.0%
CN(C)/C=C/c1c([N+](=O)[O-])c2ccc(O)cc2n1-c1ccccc1 | -2 | 19% | -16% | -2.2%
O=[N+]([O-])c1ccc(-n2cc(-c3ccccc3)nn2)cc1 | · | -49% | 14% | 0.3%
Cc1cc2c(c(=O)n1Cc1cccnc1)C(c1cccs1)C(C#N)=C(N)O2 (stereo not given) | -8 | -5% | -4% | -1.7%
COc1ccc(/C=C/C(=O)NCC(=O)N/N=C(/CCC(=O)O)c2ccccc2)cc1 | 8 | -3% | 1% | -4.7%
CC1CCCCN1Cc1c(O)ccc2c(=O)c(-c3nc4ccccc4s3)c(N)oc12 (stereo not given) | -6 | -15% | -15% | 1.8%
Cc1nc(NC(=O)c2ccccc2)nc2cc3c(cc12)OCO3 | -1 | -57% | -5% | -3.1%
CC(=O)c1ccc(N2CCN(CC(=O)NCc3ccccc3)CC2)cc1 | · | -1% | 8% | -0.9%
C[C@@H](C(=O)CC(=O)OC(C)(C)C)[C@@H](O)c1c(F)cccc1Cl | · | 0% | -18% | -0.7%
C=CCN1CCN(C(=O)CCCc2ccccc2)CC1 | · | 29% | 12% | -2.5%
Cc1cc(C)cc(CSCC(=O)N/N=C/c2ccc(OCC(=O)NCc3ccco3)cc2)c1 | -2 | 14% | -3% | -1.0%
O=C(Nc1nccs1)c1ccc(Br)cc1 | · | -32% | -6% | 1.7%
O=C(Nc1cc([N+](=O)[O-])ccc1F)C1CC1 | 0 | 0% | -13% | 4.5%

# Exported with values under each structure: entries from further up
# Order of values: GLA inh pH 4.5	miR-21 reporter	Rango release inh	Rango complex inh
COC(C[C@@H]1O[C@@H]1[C@H](O)COCc1ccccc1)OC
  -2	1%	13%	1.4%
Cn1c(C(=O)N(Cc2ccccc2)Cc2ccccn2)cc2sccc21
  0	6%	-20%	2.5%
COc1cccc(/C=N/NC(=O)CCC(=O)Nc2ccc(Br)cc2)c1
  ·	-9%	-4%	0.5%
Cc1csc(C(C#N)C(=O)c2ccc(S(=O)(=O)N3CCCC3)cc2)n1 (stereo not given)
  -3	-4%	-3%	0.1%

# Additional records:
Compound | GLA inh pH 4.5 | miR-21 reporter | Rango release inh | Rango complex inh
O=C(Nc1ccc(O)c(-c2nc3ccccc3o2)c1)C1(c2ccc(Cl)cc2)CCCC1 | -2 | 0% | -1% | -2.6%
NCCNc1cc(N2CCCC2)ccc1[N+](=O)[O-] | -17 | -14% | 12% | 2.6%
Cc1ccc(NC(=O)Cc2nnc(SCC(=O)NC3CCCC3)n2C)cc1C | · | 3% | -8% | -1.7%
CN(C)CCCN1C(=O)c2cccc3c(Br)ccc(c23)C1=O | -2 | 25% | ? | ?
CC1CN(C(=O)c2cccc(S(=O)(=O)NCc3ccccc3)c2)CC(C)O1 (stereo not given) | · | · | 3% | 4.1%
CC(C)Oc1ccc(S(=O)(=O)N2CCOCC2)cc1NC(=O)C1CCC1 | · | · | -4% | -0.6%
COc1ccc(/C=C/C(=O)N2CCC(C(N)=O)CC2)cc1S(=O)(=O)N1CCOCC1 | 8 | -2% | 6% | -0.2%
CC(C)c1ccc(NC(=O)c2cc3c(=O)n(C)c4ccccc4c3n2C)cc1 | -10 | -6% | -13% | -0.8%
COc1ccc(Cl)cc1NC(=S)NCCC(c1ccccc1)c1ccccc1 | -7 | 7% | -23% | -0.8%
Cc1cccc(NS(=O)(=O)c2ccc(-c3ccc(=O)[nH]n3)o2)c1 | · | -8% | -1% | 4.7%
CCOc1cc(/C=N/NC(=O)c2cccnc2)ccc1OCC(=O)N(C)C | -2 | 0% | 16% | -0.1%
O=C(NC1CCN(Cc2ccccc2)CC1)c1ccc(N2CC3CC(C2)c2cccc(=O)n2C3)c([N+](=O)[O-])c1 (stereo not given) | -1 | -3% | 13% | -1.5%
Cc1cccc(NC(=O)c2nc(S(=O)(=O)Cc3ccccc3)ncc2Cl)c1 | · | ? | 2% | -0.8%
CCOc1ccc(/C=C2\SC(=S)N(Nc3ccccc3)C2=O)cc1OC | -6 | -9% | -12% | ?
COc1ccc(OCC(=O)NNC(=S)NC(=O)C2CC2)cc1 | · | 0% | -8% | -0.4%
COc1ccccc1NS(=O)(=O)c1cccc(C(=O)NCC(c2ccccc2OC)N2CCCC2)c1 (stereo not given) | · | · | -4% | -3.9%
CCCC1=NN(C(=O)Cc2ccc(OC)cc2)C(O)(C(F)(F)F)C1 (stereo not given) | 0 | -11% | 3% | 0.2%
CN1CCN(Cc2cc(=O)oc3cc4c(cc23)CCC4)CC1 | -7 | -21% | -6% | ?
O=C(c1ccccc1NS(=O)(=O)c1ccccc1)N1CCCCCC1 | · | -6% | 13% | 0.0%
NNC(=O)C1CC1c1ccc(Cl)cc1 (stereo not given) | 4 | -6% | 3% | 1.2%
COc1ccc([N+](=O)[O-])cc1NC(=O)CCN1CCN(c2ccccc2)CC1 | -4 | 0% | 4% | 0.0%
Cc1cc(C)c(OCC(=O)NCC(C)(C)N2CCOCC2)c(C)c1 | · | · | -19% | -4.2%
O=C(CC1CCCCC1)c1c(O)c2ccccc2oc1=O | -2 | 20% | 11% | -1.0%
O=C1c2ccccc2C(=O)N1OCc1c(F)cccc1Cl | 7 | -1% | 6% | 2.1%
Cc1ccc(N(C)C(=O)C2CCCN2S(=O)(=O)c2cccc3nsnc23)cc1 (stereo not given) | -9 | -5% | 6% | -0.3%
COc1ccc(C(=O)Nc2ccc3nc(C)sc3c2)cc1OC | 6 | -56% | -4% | -3.0%
CCCCCCn1c(C(C)O)nc2ccccc21 (stereo not given) | -4 | 1% | 0% | -0.4%
CC1Sc2ccc(S(=O)(=O)NCCc3ccc(Cl)cc3)cc2NC1=O (stereo not given) | · | -1% | 10% | -4.6%
O=C(Nc1cccn(Cc2c(F)cccc2Cl)c1=O)NC1CCCCC1 | -10 | 7% | -9% | 0.1%
O=C(COC(=O)c1ccc(S(=O)(=O)N2CCCCC2)cc1)Nc1ccccc1Cl | · | · | 0% | -0.7%

# These rows are one share of the data; the hit share may differ from the screen's.
